From PubChem
EPAC2 antag: Validation qHTS for antagonist of cAMP-regulated guanine nucleotide exchange factor 4 (EPAC2); Potency, µM (highest dose often 112 µM), for inactives: top-dose activity, negative = inhibition, most hits filed as inhibitors; 16,000 compounds, 1.7% hits; AID 1645886, 2021; Rap guanine nucleotide exchange factor 4 (Homo sapiens), Q8WZA2; EPAC2 Rap1B BODIPY-GDP exchange, fluorescence; active means well fitted inhibition curve with a large enough effect; inconclusive means small, poorly fitted or top-dose-only effect; inactive means no such curve, though single readings can be large or run the other way;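 further: 100% = activation by cAMP agonist control; nearly all actives have a fitted effect of over 40% in size; the record reuses the description of the EPAC1 agonist screen; inactives centre near -10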
Target sequence (Q8WZA2 whole entry, looked up): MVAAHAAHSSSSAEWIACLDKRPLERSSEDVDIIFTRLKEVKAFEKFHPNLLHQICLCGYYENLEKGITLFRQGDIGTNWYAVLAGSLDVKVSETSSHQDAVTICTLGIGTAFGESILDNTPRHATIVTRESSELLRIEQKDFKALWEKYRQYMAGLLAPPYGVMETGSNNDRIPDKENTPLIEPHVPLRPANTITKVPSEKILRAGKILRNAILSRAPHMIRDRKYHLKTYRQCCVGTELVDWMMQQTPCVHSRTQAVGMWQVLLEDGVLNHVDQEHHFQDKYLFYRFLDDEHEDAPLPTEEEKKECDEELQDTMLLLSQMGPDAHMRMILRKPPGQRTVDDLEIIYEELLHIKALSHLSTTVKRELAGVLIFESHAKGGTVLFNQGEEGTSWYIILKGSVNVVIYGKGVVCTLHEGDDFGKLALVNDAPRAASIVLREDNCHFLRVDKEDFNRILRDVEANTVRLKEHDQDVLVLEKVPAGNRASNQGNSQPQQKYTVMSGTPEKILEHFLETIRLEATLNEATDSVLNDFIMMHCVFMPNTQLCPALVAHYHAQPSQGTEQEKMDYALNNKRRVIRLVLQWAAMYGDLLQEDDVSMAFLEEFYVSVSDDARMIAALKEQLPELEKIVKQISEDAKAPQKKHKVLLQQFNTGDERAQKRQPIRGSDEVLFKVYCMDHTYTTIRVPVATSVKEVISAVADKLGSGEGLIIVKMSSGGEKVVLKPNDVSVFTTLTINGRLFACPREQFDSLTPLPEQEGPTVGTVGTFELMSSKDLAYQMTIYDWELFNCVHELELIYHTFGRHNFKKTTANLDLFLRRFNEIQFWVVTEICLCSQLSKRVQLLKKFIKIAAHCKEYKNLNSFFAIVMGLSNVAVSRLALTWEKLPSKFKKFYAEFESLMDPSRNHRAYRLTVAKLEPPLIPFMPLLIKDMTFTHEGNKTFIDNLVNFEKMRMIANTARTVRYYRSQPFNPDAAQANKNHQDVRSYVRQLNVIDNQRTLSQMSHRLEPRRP
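Fluorescent exchange read-out: 100 nM EPAC2 with 250 nM RAP1B–BODIPY-GDP and 50 uM GDP; BODIPY-GDP release lowers fluorescence. Read at 480/540 nm every 5 min for 30 min at room temperature; normalized to 6.5 mM cAMP.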
Starred values were filed as active, the others as inactive; ? = inconclusive; & = joins results of further samples; ! = a repeat was not active; [ ] = remark or other dose. Potency means the concentration at half of the fitted maximal effect. These rows are one share of the data, so the mix of outcomes need not match the whole.

SMILES | EPAC2 antag
O=S(=O)(O)c1ccc2nc(-c3ccccc3)[nH]c2c1 | -3.6%
Cc1c(C(=O)O)c(O)cc2c1C(=O)c1c(O)c([C@H]3O[C@H](CO)[C@@H](O)[C@H](O)[C@H]3O)c(O)c(O)c1C2=O | -6.4%
C[C@]12CC3CC(N)(C1)C[C@@](C)(C3)C2 | -11.3%
CC(C)[C@@H]1CC[C@@H](C)C[C@H]1OC(=O)c1ccccc1O | 3.6%
Cc1cc2c(s1)Nc1ccccc1N=C2N1CCN(C)CC1 | 0.4%&-0.5%
CCCSS/C(CCO)=C(\C)N(C=O)Cc1cnc(C)nc1N | 48.4%[activator]
COc1ccccc1OCC(O)COC(N)=O (centres undefined) | -1.6%[56.6 µM]
COc1cccc(CCc2ccccc2OCC(CN(C)C)OC(=O)CCC(=O)O)c1 (centres undefined) | 16.1%
O=C1N(c2ccccc2)c2ccccc2C1(Cc1ccncc1)Cc1ccncc1 | ?
C=CCSCC=C | -2.8%
CC(=O)c1ccc(OCC(=O)N2CCCCC2)cc1 | 7.7%
CCCCCCCC/C=C\CCCCCCCCN | 6.0%
OC1(c2ccc(Cl)c(C(F)(F)F)c2)CCN(CCCC(c2ccc(F)cc2)c2ccc(F)cc2)CC1 | -2.2%
Cc1coc2c1C(=O)C(=O)c1c-2ccc2c1CCCC2(C)C | ?
CC1c2ccccc2CN1NC(=O)c1ccc(Cl)c(S(N)(=O)=O)c1 (centres undefined) | -12.8%
Cc1ccccc1N=Nc1ccc(N=Nc2c(O)ccc3ccccc23)c(C)c1 | -19.0%
CN(C)CCCSc1ccccc1NC(=O)/C=C\c1ccccc1 | -20.0%
CN(C)CCCN1c2ccccc2Sc2ccccc21 | -18.7%
C=CC(C)(O)CC/C=C(\C)CCC=C(C)C (centres undefined) | ?
CCCC(NC(C)C(=O)N1C(C(=O)O)CC2CCCCC21)C(=O)OCC (centres undefined) | -16.4%
CC(=O)O[C@]1(C(C)=O)CC[C@H]2[C@@H]3C=C(Cl)C4=CC(=O)[C@@H]5C[C@@H]5[C@]4(C)[C@H]3CC[C@@]21C | ?
N=C(N=C(N)N)N1CCOCC1 | -7.3%[56.6 µM]
Cc1onc(-c2ccccc2Cl)c1C(=O)NC1C(=O)N2C1SC(C)(C)C2C(=O)O (centres undefined) | -10.1%
CN1CCC(=C2c3ccccc3CCc3sccc32)CC1 | -12.9%&-23.5%
CN(C)C/C=C(/c1ccc(Br)cc1)c1cccnc1 | 29.1%&22.0%

Gathered by group: those above with a halogen.
SMILES | EPAC2 antag
OC1(c2ccc(Cl)c(C(F)(F)F)c2)CCN(CCCC(c2ccc(F)cc2)c2ccc(F)cc2)CC1 | -2.2%
CC1c2ccccc2CN1NC(=O)c1ccc(Cl)c(S(N)(=O)=O)c1 (centres undefined) | -12.8%
CC(=O)O[C@]1(C(C)=O)CC[C@H]2[C@@H]3C=C(Cl)C4=CC(=O)[C@@H]5C[C@@H]5[C@]4(C)[C@H]3CC[C@@]21C | ?
Cc1onc(-c2ccccc2Cl)c1C(=O)NC1C(=O)N2C1SC(C)(C)C2C(=O)O (centres undefined) | -10.1%
CN(C)C/C=C(/c1ccc(Br)cc1)c1cccnc1 | 29.1%&22.0%

Retrieved by structure from the list above (3):
SMILES | EPAC2 antag
CC1c2ccccc2CN1NC(=O)c1ccc(Cl)c(S(N)(=O)=O)c1 (centres undefined) | -12.8%
CC(=O)c1ccc(OCC(=O)N2CCCCC2)cc1 | 7.7%
Cc1cc2c(s1)Nc1ccccc1N=C2N1CCN(C)CC1 | 0.4%&-0.5%

Next part
SMILES | EPAC2 antag
CC(=O)NCCCCCC(=O)O | -9.6%
O=C(O)[C@@H](O)[C@H](O)[C@H](O)[C@@H](O)C(=O)O | 11.8%
C[C@H]1[C@H](C)CC[C@]2(C(=O)O)CC[C@]3(C)C(=CCC4[C@@]5(C)C[C@@H](O)[C@H](O)[C@@](C)(CO)[C@@H]5CC[C@]43C)[C@H]12 (some centres undefined) | -18.5%
C#C[C@]1(OC(C)=O)CC[C@H]2[C@@H]3CCC4=C/C(=N/O)CC[C@@H]4[C@H]3CC[C@@]21CC | ?
CC1=NN(c2ccccc2)C(=O)C1 | -15.0%&5.9%&-15.6%
C=CCN1C(=O)C(CC(C)C)NC1=S (centres undefined) | -8.5%&22.5%
CC(C)Cc1ccc(C(C)C(=O)O)cc1 (centres undefined) | -6.6%&15.3%&-7.0%
CC(C)Cn1cnc2c1c(=O)n(C)c(=O)n2C | 8.1%
O=C(Cn1ccnc1[N+](=O)[O-])NCCO | 23.0%
CC(=O)N1C[C@H](O)C[C@H]1C(=O)O | -8.8%
COC(=O)c1cccnc1 | -20.4%
N/C(=N\N=C\c1ccc(Cl)cc1)N/N=C/c1ccc(Cl)cc1 | -3.1%
COc1ccc(CN(CCN(C)C)c2ccccn2)cc1 | -14.7%&-12.2%&-20.5%&-19.0%
CCN(CC)C(=O)Nc1ccc(OCC(O)CNC(C)(C)C)c(C(C)=O)c1 (centres undefined) | -7.3%
CC(=O)[C@H]1CC[C@H]2[C@@H]3C[C@H](C)C4=CC(=O)CC[C@]4(C)[C@H]3[C@@H](O)C[C@]12C | -14.7%[56.6 µM]
CCNC(=O)/C=C/c1cccc(Br)c1 | -21.8%
Nc1ccc(C(=O)Nc2ccccc2N)cc1 | -7.8%
CCCOC(=O)c1ccccc1 | -4.8%
CCCC(=O)O | -10.1%
c1ccc2c(CC3=NCCN3)cccc2c1 | -12.6%&34.5%&-20.5%&12.1%&-0.5%
O=c1cc[nH]c(=O)[nH]1 | 11.0%
Cc1onc(-c2ccccc2Cl)c1C(=O)N[C@@H]1C(=O)N2[C@@H]1SC(C)(C)[C@@H]2C(=O)O | 24.1%[56.6 µM]
COc1cc(N)c(Cl)cc1C(=O)NC1CCN(CCCOc2ccc(F)cc2)CC1OC (centres undefined) | ?
CCCCCCC/C=C\CCCCCCCCC(=O)O | 28.2µM*
CC(C)Cc1ccc([C@H](C)C(=O)O)cc1 | -18.3%&-6.0%

The list goes on:
SMILES | EPAC2 antag
O=C(O)[C@@H]1[C@H]2C[C@H]3c4[nH]c5ccccc5c4CCN3C[C@@H]2CC[C@@H]1O | -17.4%[56.6 µM]
O=C(O)CN1C(=O)c2cccc3cccc(c23)C1=O | -21.4%[239 µM]
CCOC(=O)c1cccc(N)c1 | 15.7%
Nc1cc(-c2ccncc2)c[nH]c1=O | 35.5µM*!
C[C@]12CC[C@H]3[C@@H](CCC4=CC(=O)CC[C@@]43C)[C@@H]1CC[C@@H]2C(=O)CO | -2.4%[56.6 µM]
CCN(CC)C[C@@H]1CCCCN1CC(=O)N1c2ccccc2C(=O)Nc2cccnc21 | -23.9%
CCCOc1ccccc1-c1nc2n[nH]nc2c(=O)[nH]1 | -8.2%&-10.8%&-3.0%&-26.6%
CCOC(=O)[C@H](CCc1ccccc1)N[C@@H](C)C(=O)N(CC(=O)O)C1Cc2ccccc2C1 | ?
NS(=O)(=O)c1cc2c(cc1C(F)(F)F)NC(Cc1ccccc1)NS2(=O)=O (centres undefined) | 1.1%[56.6 µM]
CCCCCC(=O)O[C@@]1(C(C)=O)CCC2C3CCC4=CC(=O)CC[C@@]4(C)C3CC[C@]21C (some centres undefined) | -26.3%
COc1nc(C)nc(Cl)c1NC1=NCCN1 | -3.8%
COc1cc(Nc2c(C#N)cnc3cc(OCCCN4CCN(C)CC4)c(OC)cc23)c(Cl)cc1Cl | -18.0%
COc1cc2nc(N3CCN(C(=O)C4COc5ccccc5O4)CC3)nc(N)c2cc1OC (centres undefined) | ?
O=C1NCC2(CCN(CCc3ccccc3)CC2)O1 | -19.1%&20.3%
NC(=O)n1c(O)c(C(=O)c2cccs2)c2cc(Cl)ccc21 | -7.3%
Cc1nnc(NS(=O)(=O)c2ccc(N)cc2)s1 | -29.7%&-5.2%
CCN(CC)CCOc1ccccc1C(=O)CCc1ccccc1 | 9.2%
O=C1NC(=O)[C@@]2(CCOc3ccc(F)cc32)N1 | -12.7%
CC[C@]1(O)C[C@@H]2CN(CCc3c([nH]c4ccccc34)[C@@](C(=O)OC)(c3cc4c(cc3OC)N(C)C3[C@]45CCN4CC=C[C@](CC)(C45)[C@@H](OC(C)=O)[C@]3(O)C(=O)OC)C2)C1 (some centres undefined) | -4.4%[56.6 µM]
Nc1nccs1 | -5.1%
O=C(Nc1ccc(Cl)cc1)Nc1ccc(Cl)c(C(F)(F)F)c1 | -38.8%
CC[C@H]1OC(=O)C[C@@H](O)[C@H](C)[C@@H](O[C@@H]2O[C@H](C)[C@@H](O)[C@H](N(C)C)[C@H]2O)[C@@H](CCN2C[C@H](C)C[C@H](C)C2)C[C@@H](C)C(=O)/C=C/C(C)=C/[C@@H]1CO[C@@H]1O[C@H](C)[C@@H](O)[C@@H](OC)[C@H]1OC | 13.9%
O=C(O)COC(=O)Cc1ccccc1Nc1c(Cl)cccc1Cl | ?
O=c1cc(-c2ccc(O)cc2)oc2cc(O)ccc12 | -11.8%

In another format: results already given
| SMILES | EPAC2 antag |
| --- | --- |
| CCN(CC)CCOc1ccccc1C(=O)CCc1ccccc1 | 9.2% |
| CCNC(=O)/C=C/c1cccc(Br)c1 | -21.8% |
| CC(C)Cc1ccc(C(C)C(=O)O)cc1 (centres undefined) | -6.6%&15.3%&-7.0% |
| O=S(=O)(O)c1ccc2nc(-c3ccccc3)[nH]c2c1 | -3.6% |
| CC(=O)[C@H]1CC[C@H]2[C@@H]3C[C@H](C)C4=CC(=O)CC[C@]4(C)[C@H]3[C@@H](O)C[C@]12C | -14.7%[56.6 µM] |
